Compound activity as filed in PubChem BioAssay.
HNF4A DNA FP – change in binding of human HNF4 alpha to DNA; P41235; HNF4a-FITC DNA binding, fluorescence polarization, 1 h; activity change, % at 10 µM; 0.3% of 360,000 active; in the data active = activity change above about 30%, passing the limit was not always enough;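 note: controls were the assay level and a saturating level of protein; the project sought stronger binding though the title names inhibitors; some compounds called inactive have numbers as strong as hits; positive values seem to mean higher polarization but the record does not say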
Target sequence (P41235 whole entry, looked up): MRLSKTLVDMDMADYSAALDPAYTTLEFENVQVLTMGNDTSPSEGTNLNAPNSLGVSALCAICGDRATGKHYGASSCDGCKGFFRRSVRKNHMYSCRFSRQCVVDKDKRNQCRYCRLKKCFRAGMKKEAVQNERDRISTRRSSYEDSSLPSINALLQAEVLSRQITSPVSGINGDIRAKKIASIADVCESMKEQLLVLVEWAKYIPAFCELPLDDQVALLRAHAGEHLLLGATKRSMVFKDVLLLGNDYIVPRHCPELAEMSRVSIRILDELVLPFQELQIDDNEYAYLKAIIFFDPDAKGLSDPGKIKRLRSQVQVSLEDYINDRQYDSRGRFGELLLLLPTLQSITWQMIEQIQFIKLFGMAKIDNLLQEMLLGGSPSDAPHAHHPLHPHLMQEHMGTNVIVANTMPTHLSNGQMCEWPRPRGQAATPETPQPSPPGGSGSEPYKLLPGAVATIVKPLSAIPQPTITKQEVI
UCH37 DUB inh – human UCH37 deubiquitinating enzyme inhibition; Q9Y5K5; purified proteasome/UCH37, Ub-AMC cleavage fluorescence; inhibition, % (concentration not given with the values); 0.33% of 330,000 active;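 active = mean of two replicates above 20%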;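 note: 0% = compound-free wells with enzyme and 100% = wells lacking proteasome; stock transfer was 100 nL into about 20 µL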
Target sequence (Q9Y5K5 whole entry, looked up): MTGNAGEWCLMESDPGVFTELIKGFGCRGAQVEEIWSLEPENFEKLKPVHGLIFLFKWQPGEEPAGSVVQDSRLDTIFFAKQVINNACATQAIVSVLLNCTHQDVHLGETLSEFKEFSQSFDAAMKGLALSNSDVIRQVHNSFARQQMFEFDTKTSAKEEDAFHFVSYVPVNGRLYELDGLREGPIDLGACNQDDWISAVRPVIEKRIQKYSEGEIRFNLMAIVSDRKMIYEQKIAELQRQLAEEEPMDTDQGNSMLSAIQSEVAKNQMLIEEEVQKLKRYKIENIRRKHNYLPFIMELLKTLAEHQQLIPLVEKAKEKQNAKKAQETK
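Material: human UCH37 enzyme supplied as purified proteasome complex. Measure: % inhibition of Ub-AMC cleavage fluorescence. Medium: pH 7.4 Tris-HCl (50 mM) with ovalbumin, ATP-MgCl2, DTT. Times: 30 min preincubation with enzyme, 25 min cleavage at room temperature. Detection: AMC fluorescence intensity at 355/460 nm.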
Beta2AR agonist – activates human beta-2 adrenergic receptor causing internalization. P07550. Am2.2-beta2AR cells, FAP receptor internalization, flow cytometry; reference of the scale not given here. response, % (test concentration not listed). 0.43% of 340,000 active. AID 504454;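 active = response above a set limit, near 3 SD of response in nonfluorescent compounds, cut at about 42% in these data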;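 note: stock transfer was 100 nL into about 11 µL; a reference agonist was the positive control; negative values mostly stem from fluorescent compounds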
Ecoli growth – blocks Escherichia coli growth; OD600 absorbance (test concentration not listed); 0.21% of 330,000 active; AID 1053175; OD600, 23 h; active compounds read low;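 active = OD600 absorbance below the run mean of sample wells minus 3.6 SD, in any replicate, cut at about 0.56 in these data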;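 note: stock transfer was 300 nL into about 60 µL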
LANA-H2B inh – blocks KSHV LANA binding to histone H2A/H2B. inhibition, % (test concentration not listed). Q9QR71. cell-free LANA-H2A/H2B peptide, fluorescence polarization. 0.6% of 320,000 active; in the data active = inhibition mostly above about 10%, no sharp cut-off; inactive = mostly below about 6.7%;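 note: stock transfer was 7.5 nL into about 10 µL; 0% = median of vehicle wells and 100% = median of positive control wells; one replicate is shown; the record names a cut of 25% in any replicate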
A1 inh – inhibitors of the anti-apoptotic protein A1, read as caspase activation | MEF A1-2A-BIM cells, Caspase-Glo 3/7 luminescence, 3 h; percent of clofoctol response, vehicle zero | caspase activation, % (concentration not given with the values) | AID 2462 | 0.066% of 330,000 active;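 active = over half of replicate activation scores above 10%, or exactly half above 10 with the replicate mean above 10; inconclusive = replicate mean below 10 yet half the replicates above 10; inactive = over half of replicates below 10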;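 note: wells of about 30 µL received 50 nL stock; many hits fall short of the cut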
Vif TR-FRET – inhibitors of Vif binding to APOBEC3G peptide, primary screen, biochemical, TR-FRET, GST-Vif 1-94, biotin-A3G peptide, dose response retest (AID 1117319); 0.57% of 260,000 active; TR-FRET GST-Vif / biotin-A3G peptide binding; higher % means a stronger effect; test concentration not given here; strong numbers were not always called active; inhibition, %; hits with a dose series show IC50 in µM;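 active = above the screen mean plus three standard deviations and confirmed in dose response; inconclusive = results disagree or hit not tested in dose response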;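 note: Vif residues 1-94 fused to GST binding biotinylated APOBEC3G peptide 110-148; 0% = full assay without inhibitor and 100% = GST in place of GST-Vif; retest series ran down from 100 µM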
An asterisk follows results filed as active.

Results for COc1ccc(Cl)cc1NC(=O)CN(C)C(=O)c1sc2ccccc2c1Cl ?
HNF4A DNA FP: 4.2; UCH37 DUB inh: -1.7; Beta2AR agonist: -3.8; Ecoli growth: 0.723; LANA-H2B inh: -2.1; A1 inh: 0.1; Vif TR-FRET: 1.5%

Results for C[C@]12C(=O)N(c3cccc(F)c3)C(=O)N1[C@H]1c3ccccc3OC[C@@H]1[C@H]2c1ccccc1 ?
HNF4A DNA FP: 2.0; UCH37 DUB inh: -0.9; Beta2AR agonist: 0.1; LANA-H2B inh: -3.5; A1 inh: 0.5

Results for O=C1c2ccccc2S(=O)(=O)c2cc(C(=O)N3CCN(C(=O)c4ccccc4)CC3)ccc21 ?
HNF4A DNA FP: 3.8; UCH37 DUB inh: 1.7; Beta2AR agonist: 1.5; Ecoli growth: 0.618; LANA-H2B inh: 0.5; A1 inh: -1.0

Results for COCc1cc(C)nc(OCC(=O)N/N=C/c2cc(C)n(-c3c(C)cccc3C)c2C)c1C#N ?
HNF4A DNA FP: 0.6; Beta2AR agonist: 0.2; LANA-H2B inh: 1.7; A1 inh: -0.3; Vif TR-FRET: 3.7%

Results for C/C(CC(=O)NCc1ccco1)=N\NC(=O)COc1ccc(C)cc1 ?
HNF4A DNA FP: 0.5; Beta2AR agonist: -0.2; LANA-H2B inh: 0.1; A1 inh: -0.4

What do the screens show for `COc1ccc(-c2nn(-c3ccccc3)cc2C(=O)N2CCN(C(=O)c3ccco3)CC2)cc1`?
HNF4A DNA FP: 1.0; UCH37 DUB inh: -2.5; Beta2AR agonist: -18.0; Ecoli growth: 0.697; LANA-H2B inh: 1.2; A1 inh: 1.5; Vif TR-FRET: -8.2%

What do the screens show for `O=C(O)CC1(CC(=O)Nc2cc3ccccc3cn2)CCCCC1`?
HNF4A DNA FP: 3.4; UCH37 DUB inh: -16.5; Beta2AR agonist: -2.5; Ecoli growth: 0.672; LANA-H2B inh: -3.6; A1 inh: 0.7; Vif TR-FRET: -0.1%

How did CCc1cccc(CC)c1N(COC)C(=O)Cn1ccccc1=N do in these assays?
HNF4A DNA FP: -2.8; UCH37 DUB inh: -1.4; Beta2AR agonist: 0.1; Ecoli growth: 0.706; LANA-H2B inh: 0.6; A1 inh: -0.2; Vif TR-FRET: 0.2%

How did COC(=O)C(C)Sc1nnc2n(-c3cccc(C)c3)c(=O)c3c4c(sc3n12)CCCC4 (stereo unspecified) do in these assays?
HNF4A DNA FP: 2.6; UCH37 DUB inh: 7.7; Beta2AR agonist: -14.3; Ecoli growth: 0.737; LANA-H2B inh: -3.2; A1 inh: 1.4; Vif TR-FRET: inconclusive

What do the screens show for `CC(C)OC(=O)c1cc(C(=O)c2cc(F)ccc2O)coc1=N`?
HNF4A DNA FP: 5.0; UCH37 DUB inh: -43.3; Beta2AR agonist: -57.9; Ecoli growth: 0.702; LANA-H2B inh: -0.9; A1 inh: -0.5; Vif TR-FRET: -2.8%

How did CCOC(=O)N1CCC(N2CC34C=CC(O3)C(C(=O)O)C4C2=O)CC1 (stereo unspecified) do in these assays?
HNF4A DNA FP: -0.1; UCH37 DUB inh: 1.1; Beta2AR agonist: -3.5; Ecoli growth: 0.743; LANA-H2B inh: 3.9; A1 inh: 0.1; Vif TR-FRET: 2.6%

What do the screens show for `CCOC(=O)C1CCN(C(=O)C2COc3ccccc3O2)CC1` (stereo unspecified)?
HNF4A DNA FP: 1.8; UCH37 DUB inh: -0.5; Beta2AR agonist: -2.4; Ecoli growth: 0.673; LANA-H2B inh: 1.9; A1 inh: 0.6

How did CCC(C)NC(=O)CCC(=O)Nc1ccc2nc(N3CC(C)CC(C)C3)cc(C)c2c1 (stereo unspecified) do in these assays?
HNF4A DNA FP: 5.1; UCH37 DUB inh: -150.7; Beta2AR agonist: 2.5; Ecoli growth: 0.674; LANA-H2B inh: -6.0; A1 inh: -0.4; Vif TR-FRET: -7.1%

What do the screens show for `COc1ccc(Nc2nc3ccc(C)cc3cc2C#N)c(OC)c1`?
HNF4A DNA FP: -17.8; UCH37 DUB inh: 2.0; Beta2AR agonist: -13.2; Ecoli growth: 0.692; LANA-H2B inh: 2.0; A1 inh: -0.5; Vif TR-FRET: -4.5%

How did Cc1ccc(OCCC(=O)OCC(=O)NC2CCS(=O)(=O)C2)cc1 (stereo unspecified) do in these assays?
HNF4A DNA FP: 3.9; UCH37 DUB inh: 3.0; Beta2AR agonist: -12.1; Ecoli growth: 0.709; LANA-H2B inh: -6.0; A1 inh: -0.6; Vif TR-FRET: -6.8%

What do the screens show for `O=C(Nc1ccnn1C1CCN(Cc2ccccn2)CC1)c1cccc(F)c1`?
HNF4A DNA FP: 0.2; UCH37 DUB inh: -0.3; Beta2AR agonist: 1.1; Ecoli growth: 0.724; LANA-H2B inh: 1.7; A1 inh: 0.4

What do the screens show for `COc1ccc(C)cc1S(=O)(=O)Nc1cc2c3c(c1)CCC(=O)N3CCC2`?
HNF4A DNA FP: -0.7; UCH37 DUB inh: -1.8; Beta2AR agonist: 0.2; Ecoli growth: 0.623; LANA-H2B inh: -1.0; A1 inh: -0.3; Vif TR-FRET: 3.6%

Results for O=C(Nc1ccc2nc3n(c(=O)c2c1)CCCC3)c1cccc(F)c1 ?
HNF4A DNA FP: 2.8; UCH37 DUB inh: -0.4; Beta2AR agonist: 5.8; Ecoli growth: 0.669; LANA-H2B inh: -3.1; A1 inh: -0.7; Vif TR-FRET: -5.0%

Results for COC(=O)c1ccc(N2CCN(C(=O)c3ccccc3)CC2)c(NC(C)=O)c1 ?
HNF4A DNA FP: 5.5; UCH37 DUB inh: 5.9; Beta2AR agonist: 2.1; Ecoli growth: 0.725; LANA-H2B inh: -5.0; A1 inh: -0.1; Vif TR-FRET: -1.5%

Results for NC(=O)c1ccsc1NC(=O)COC(=O)CNC(=O)c1ccc(Cl)cc1 ?
HNF4A DNA FP: -0.2; UCH37 DUB inh: 1.2; Beta2AR agonist: -3.0; Ecoli growth: 0.704; LANA-H2B inh: -2.5; A1 inh: 0.3; Vif TR-FRET: -26.3%

How did COc1ccc(NC(=O)CCS(=O)(=O)c2ccc(Cl)cc2)cc1 do in these assays?
HNF4A DNA FP: -0.4; UCH37 DUB inh: 3.8; Beta2AR agonist: 2.0; Ecoli growth: 0.694; LANA-H2B inh: 4.6; A1 inh: 0.4; Vif TR-FRET: -10.9%

Results for Cc1cc(N2CCN(C)CC2)nc(N2CCOCC2)n1 ?
HNF4A DNA FP: -2.0; UCH37 DUB inh: -0.2; Beta2AR agonist: 3.6; Ecoli growth: 0.718; LANA-H2B inh: 2.5; A1 inh: -0.4; Vif TR-FRET: 0.8%

What do the screens show for `Cc1ccc(S(=O)(=O)NCC(=O)NCC(=O)NCCc2ccccc2F)cc1C`?
HNF4A DNA FP: 3.4; UCH37 DUB inh: -0.2; Beta2AR agonist: 0.4; Ecoli growth: 0.614; LANA-H2B inh: 0.5; A1 inh: 0.0; Vif TR-FRET: 24.1%

Results for CC(C)CC(OC(=O)c1cccs1)C(=O)NCc1ccco1 (stereo unspecified) ?
HNF4A DNA FP: 1.2; UCH37 DUB inh: 0.6; Beta2AR agonist: 1.9; Ecoli growth: 0.709; LANA-H2B inh: 3.1; A1 inh: 0.9; Vif TR-FRET: 12.3%

Results for CCOC(=O)CN(C(=O)COC(=O)C1=NNC(=O)CC1)c1ccc(F)cc1 ?
HNF4A DNA FP: 1.7; UCH37 DUB inh: 0.1; Beta2AR agonist: 1.8; Ecoli growth: 0.71; LANA-H2B inh: 3.8; A1 inh: 0.8; Vif TR-FRET: -0.2%

How did Cc1nc(-c2ccccc2)nc2sc(C(=O)c3ccc(F)cc3)c(N)c12 do in these assays?
HNF4A DNA FP: 0.9; UCH37 DUB inh: 0.2; Beta2AR agonist: -4.8; Ecoli growth: 0.672; LANA-H2B inh: 8.1; A1 inh: 0.5

Results for CCN1CCCC1CNC(=O)c1cc2c(=O)n(C)c3ccccc3c2n1C (stereo unspecified) ?
HNF4A DNA FP: 4.8; UCH37 DUB inh: -8.7; Beta2AR agonist: -5.3; Ecoli growth: 0.748; LANA-H2B inh: -1.8; A1 inh: 0.8; Vif TR-FRET: -2.3%

Results for O=C(C1=C(O)C(=O)N(CCN2CCOCC2)C1c1ccccc1)c1cccs1 (stereo unspecified) ?
HNF4A DNA FP: 1.2; UCH37 DUB inh: 10.2; Beta2AR agonist: -2.5; Ecoli growth: 0.624; LANA-H2B inh: 3.6; A1 inh: 0.7

How did COc1ccccc1N(C)S(=O)(=O)c1ccc(C(=O)N(C)Cc2ccc(OC(F)F)cc2)cc1 do in these assays?
HNF4A DNA FP: -2.5; UCH37 DUB inh: 1.4; Beta2AR agonist: 14.8; Ecoli growth: 0.632; Vif TR-FRET: -1.7%

Results for O=C(O)c1ccccc1C(=O)Nc1ccccc1[N+](=O)[O-] ?
HNF4A DNA FP: -0.8; UCH37 DUB inh: 3.4; Beta2AR agonist: 6.1; Ecoli growth: 0.658; LANA-H2B inh: -2.0; A1 inh: 0.0

What do the screens show for `O=C(Nc1cc(Cl)ccc1-n1cncn1)c1cc(F)cc(F)c1`?
HNF4A DNA FP: 3.5; UCH37 DUB inh: 3.1; Beta2AR agonist: -8.6; Ecoli growth: 0.689; LANA-H2B inh: -2.7; A1 inh: -0.3; Vif TR-FRET: 3.5%

How did CSc1cccc(NC(=O)Cn2cccc2)c1 do in these assays?
HNF4A DNA FP: -0.2; UCH37 DUB inh: 3.0; Beta2AR agonist: 12.5; Ecoli growth: 0.711; LANA-H2B inh: -1.9; A1 inh: 0.8; Vif TR-FRET: -2.9%

Results for COc1cccc(NC(=S)NCc2ccc3c(c2)cc(C)n3C)c1 ?
HNF4A DNA FP: -0.8; UCH37 DUB inh: 3.8; Beta2AR agonist: 7.5; Ecoli growth: 0.644; Vif TR-FRET: 7.8%

How did N#CCCN(Cc1cccnc1)C(=O)Nc1ccc(Cl)c(Cl)c1 do in these assays?
HNF4A DNA FP: 0.4; UCH37 DUB inh: 2.1; Beta2AR agonist: 3.1; Ecoli growth: 0.696; LANA-H2B inh: 1.4; A1 inh: -0.3; Vif TR-FRET: 0.4%

How did CC(NC(=O)c1noc2c1CCCC2)c1ccccc1 (stereo unspecified) do in these assays?
HNF4A DNA FP: -2.0; UCH37 DUB inh: 1.8; Beta2AR agonist: -13.3; Ecoli growth: 0.652; LANA-H2B inh: -0.8; A1 inh: 0.0; Vif TR-FRET: 1.7%

How did COc1ccc(C(=O)Nc2ccc(C(=O)Nc3cccnc3)cc2)cc1 do in these assays?
HNF4A DNA FP: 3.6; UCH37 DUB inh: 3.7; Beta2AR agonist: 53.6*; Ecoli growth: 0.634; LANA-H2B inh: 2.5; A1 inh: 0.9

Results for Cc1c(C(=O)OCC(=O)N(C)c2ccccc2)cccc1[N+](=O)[O-] ?
HNF4A DNA FP: -0.8; UCH37 DUB inh: 2.8; Beta2AR agonist: 2.3; Ecoli growth: 0.649; LANA-H2B inh: 1.3; A1 inh: 1.0; Vif TR-FRET: -5.8%

How did Cc1ccc(-c2csc(N3CCN(CCCn4c(C(F)(F)F)nc5ccccc54)CC3)n2)cc1 do in these assays?
HNF4A DNA FP: 5.1; UCH37 DUB inh: 3.5; Beta2AR agonist: 1.4; Ecoli growth: 0.711; LANA-H2B inh: -4.0; A1 inh: -0.1

Results for CSc1ccc(CNc2ccc(C)cc2)cc1 ?
HNF4A DNA FP: 1.3; UCH37 DUB inh: 2.6; Beta2AR agonist: 10.9; Ecoli growth: 0.657; LANA-H2B inh: 0.4; A1 inh: -0.1; Vif TR-FRET: 11.1%
